Assay outcomes (PubChem BioAssay)
TRPML1 inh: qHTS for Inhibitors of the Human Mucolipin Transient Receptor Potential 1 (TRPML1); Mucolipin-1 (Homo sapiens), Q9GZU1; TRPML1-inducible cells, Ca2+ dye fluorescence, FDSS; active compounds read low; inhibition of EC80 agonist-evoked calcium signal; activity change, negative = inhibition, % (no concentration beside the values); actives 0.02% (n = 390,000); AID 624415, 2012; in the data active means activity change below about -50%; inconclusive means about -30% to -50%; inactive means above about -30%;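 further: stimulus is agonist 54-4 at its EC80 concentration; on the % scale 0 is the no-effect control and ±100 the full control effect; compound concentration not given in the record; the text of the record puts the active cut at -80%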
Target sequence (Q9GZU1 whole entry, looked up): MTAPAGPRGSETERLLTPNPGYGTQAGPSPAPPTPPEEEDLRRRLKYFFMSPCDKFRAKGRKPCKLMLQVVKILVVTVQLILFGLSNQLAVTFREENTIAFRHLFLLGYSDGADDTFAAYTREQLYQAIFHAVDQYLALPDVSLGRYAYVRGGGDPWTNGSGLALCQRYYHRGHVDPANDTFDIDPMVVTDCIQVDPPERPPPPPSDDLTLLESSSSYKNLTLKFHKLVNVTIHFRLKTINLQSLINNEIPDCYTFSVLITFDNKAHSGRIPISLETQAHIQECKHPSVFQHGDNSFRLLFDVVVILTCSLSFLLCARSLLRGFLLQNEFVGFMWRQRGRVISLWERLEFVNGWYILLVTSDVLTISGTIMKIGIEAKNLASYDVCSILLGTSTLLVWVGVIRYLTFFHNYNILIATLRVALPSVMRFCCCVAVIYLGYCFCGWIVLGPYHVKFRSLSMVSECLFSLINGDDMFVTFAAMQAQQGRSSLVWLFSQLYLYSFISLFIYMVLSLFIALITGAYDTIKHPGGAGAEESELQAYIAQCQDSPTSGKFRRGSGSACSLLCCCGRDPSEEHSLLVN
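TRPML1-DL cells, Tet-induced overnight (~16 h, 37 °C) at 1,500 cells/well, were loaded with Ca8 no-wash dye plus quencher for 45-90 min at room temperature. Compounds were pinned during FDSS kinetic reading; agonist 54-4 at EC80 (4 uM final) then added.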
TRPML1 ag: qHTS for Agonists of the Human Mucolipin Transient Receptor Potential 1 (TRPML1); Mucolipin-1 (Homo sapiens), Q9GZU1; TRPML1-expressing cells, Ca2+ dye fluorescence, FDSS; host cell line not named in the record; reference of the full effect not given here; actives 0.12% (n = 410,000); activation, % (concentration not given with the values); in the data active = activation above about 50%; inconclusive = about 30% to 50%; inactive = below about 30%; further: 0% is about no effect; the text of the record puts the active cut at 80%
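Kinetic FDSS Ca2+ read in Tet-induced TRPML1-DL cells (ABD Ca8 dye plus quencher, 45-90 min RT loading): baseline, then compound, then 110 s agonist window; EC80 agonist 54-4 at 4uM final added afterwards for a 110 s antagonist window.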
gsp agonist: qHTS for Agonist of gsp, the Etiologic Mutation Responsible for Fibrous Dysplasia/McCune-Albright Syndrome: qHTS | gsp mutant cells, cAMP HTRF, 30 min; control for the full effect not named in the record | Potency, µM (titrated, usually from 76.9 µM), for inactives: top-dose activation (cAMP increase), actives largely listed as activators | actives 0.13% (n = 340,000) | AID 624287, 2012; active = well fitted activation curve with a large enough effect; inconclusive = small, poorly fitted or top-dose-only effect, or another doubt; inactive = no such curve, though single readings can be large or run the other way; cell line not stated here;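 further: phosphodiesterase inhibitor Ro 20-1724 added with compounds to block cAMP breakdown; potency means the concentration at half of the fitted maximal effect; nearly all actives have a fitted effect of over 60% in size; about a fifth of the inactives were tested at one dose only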
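Cells in DMEM/10% FBS with G418 were pretreated with compounds in DMSO plus […] (300 uM stock) for 30 min at 37C. cAMP was measured by HTRF (cAMP-d2 plus anti-cAMP antibody-K) after 30 min at room temperature.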
Menin MLL FP FL: qHTS Assay for Inhibitors Targeting the Menin-MLL Interaction in MLL Related Leukemias: Competition With Fluorescein Labeled MLL-derived Peptide. Fluorescence polarization, fluorescein-MLL peptide displacement from menin. FP activity change, % at 61.4 µM. 290,000 tested, under 10 active; inconclusive = falling polarisation curve, or a change in total fluorescence; inactive = total fluorescence flat and polarisation flat or rising; no compound was filed as active; the % refers to the polarisation; negative = inhibition;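 further: % of control where 0% means no effect; inhibitors lower the polarisation; unlabelled MLL peptide was the positive control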
ClpP mod: qHTS Assay for Activators of ClpP; actives 1.9% (n = 340,000); purified B. subtilis ClpP, FRET peptide cleavage, 20 min; ATP-dependent Clp protease proteolytic subunit (Bacillus subtilis (strain 168)), P80244; Potency, µM (series often up to 57.5 µM), inactives show at the highest dose activity change, negative = active; AID 651965, 2013; active = well fitted falling curve with a large enough effect; inconclusive = small, poorly fitted or top-dose-only effect; inactive = no such curve, though single readings can be large or run the other way; further: potency means the concentration at half of the fitted maximal effect; the source files actives as falling curves though it sought activators and does not explain the sign; nearly all actives have a fitted effect of over 65% in size; many hits overshoot -100%
Target sequence (P80244 whole entry, looked up): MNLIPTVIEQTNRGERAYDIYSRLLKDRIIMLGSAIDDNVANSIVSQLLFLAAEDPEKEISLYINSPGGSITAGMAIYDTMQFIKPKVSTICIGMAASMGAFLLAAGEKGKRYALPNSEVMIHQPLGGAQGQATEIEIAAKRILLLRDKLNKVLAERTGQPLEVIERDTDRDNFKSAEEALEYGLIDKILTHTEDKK
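ClpP 10 microg/mL final, pH 8 Tris/KCl buffer with BSA, glycerol, Tween-20; compound pinned in; FRET-FV substrate; RT 20 min; Ex320/Em430; ΔFRET vs ADEP 5.8 microM, DMSO, no enzyme.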
gsp antagonist: qHTS for Antagonists of gsp, the Etiologic Mutation Responsible for Fibrous Dysplasia/McCune-Albright Syndrome: qHTS. AID 624288, 2012. actives 0.4% (n = 340,000). gsp-mutant cells, cAMP HTRF, 30 min; control for the full effect not named in the record. Potency, µM (doses to about 76.9 µM), inactives show top-dose activity change, negative = inhibition, actives largely listed as inhibitors; active = falling curve of any shape with a large fitted effect; inconclusive = falling curve, mostly with a smaller effect; inactive = flat or rising curve; cell line not stated here;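 further: intracellular cAMP measured with PDE inhibitor Ro 20-1724 present during compound exposure; potency means the concentration at half of the fitted maximal effect; on the % scale 0 is the no-effect control and ±100 the full control effect; nearly all actives have a fitted effect of over 65% in size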
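Measurement of cellular cAMP by homogeneous time-resolved fluorescence following a 30 min compound exposure at 37C. The PDE inhibitor […] was present throughout; the assay buffer was DPBS with 0.05% BSA and 0.005% Tween 20.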
Numbers without * were called inactive; ? = inconclusive; . = no result given; & = joins results of further samples; [ ] = another dose, or the depositor's remark.

SMILES	TRPML1 inh	TRPML1 ag	gsp agonist	Menin MLL FP FL	ClpP mod	gsp antagonist
O=C(CN1CCN(Cc2ccccc2)CC1)N/N=C/c1ccccc1F	10	0.1	-13%[15.4 µM]	-0.7	.	9%
CN1CCN(C(=S)c2cn(Cc3ccccc3)c3ccccc23)CC1	1	-0.3	1%	0.4	1.6%	-10%
CC(C)[C@H](NS(=O)(=O)c1cccc(Cl)c1)C(=O)OCC(=O)N1CCN(c2ccccc2)CC1	3	0.5	1%	-0.6	1.4%	-7%
Cc1ccc(NC(=S)N(Cc2ccco2)C(C)c2cccs2)cc1 (centres undefined)	34	-0.2	?	0.3	1.0%	-7%
C=CC(COCc1ccccc1)N(Cc1ccccc1)S(=O)(=O)c1ccccc1Br (centres undefined)	-1&1	1.3&3.7	-41%	6.7&-1.2	-1.2%	-4%
O=S(=O)(NCC(c1ccco1)N1CCN(c2ccccc2F)CC1)c1ccc2c(c1)OCCO2 (centres undefined)	-3	1.2	-13%	-1.7	-0.7%	-11%
COc1ccc(S(=O)(=O)N2CCCCC2)cc1NC(=O)C1CC(=O)N(c2ccc3c(c2)OCCO3)C1 (centres undefined)	-5	-0.1	3%	.	-0.4%	0%
Cc1ccc(-c2csc(=Nc3cccnc3)n2CCCn2ccnc2)cc1C	44	0.9	-7%	-0.3	-1.1%	-3%
COc1cc(-c2cccc([C@H]3[C@@H]4C=CC[C@@H](C)[C@@H]4C(=O)N3Cc3ccccc3)c2)cc(OC)c1OC	52	0.2	.	-1.0	-14%	-8%
Cc1ccc(NC(=O)Cn2c(=O)n(CCCS(=O)(=O)C3CCCCC3)c(=O)c3ccccc32)cc1F	10	1.8	.	.	-4.2%	.
CCN(CC)S(=O)(=O)c1cc(C(=O)OCC(=O)NC(=O)c2cccn2C)ccc1C	-9	-0.7	-4%	5.6	13%	-17%
CN(C)c1ccc(/C=[N+](\[O-])C(C)(C)/C=N/O)cc1	-11	1.5	?	-2.6	0.7%	3%
O=C(Nc1ccc(Cl)c([N+](=O)[O-])c1)ONC1=NCCCCC1	-11	-1.1	-1%[15.4 µM]	-2.0	.	16%
Cc1ccc(S(=O)(=O)N(CC(=O)Nc2cccc(C(F)(F)F)c2)C(=O)N2CCN(C)CC2)cc1	-12	-0.1	3%[15.4 µM]	.	2.2%	6%
CCN(CC)c1nc2n(c(=S)n1)CCS2	-5	0.9	-13%	-0.2	0.0%	9%
CCC(NC(=O)NC1CCCCC1)c1ccccc1 (centres undefined)	-2	0.5	21%	8.7	1.2%	7%
Cc1cccc(-n2ccnc2SCC(=O)Nc2ccccc2C(F)(F)F)c1	-19	0.5	.	.	3.2%	.
CC(C)Cc1nnc(NC(=O)C2CCN(C(=O)c3ccc(Cl)cc3)CC2)s1	25	0.0	-62%[inhibitor]	.	0.8%	0%
CS(=O)(=O)Nc1ccc(-c2ccc(/C=C3\SC(N)=NC3=O)o2)cc1	0	2.9	?	?	-0.9%	7%
Cc1ccsc1CN(C)Cc1nc(C2CC2)no1	2	-0.8	-21%	0.9	.	9%
CC12CCC(C(=O)NCc3ccccc3Cl)(CC1=O)C2(C)C (centres undefined)	0	0.5	-2%[15.4 µM]	-4.4	.	-6%
C[C@H](NC(=O)c1ccc(Cl)cc1)C(=O)NNC(=O)c1cccs1	6	0.5	?	.	0.9%	5%
Cc1ccc(/C=N/NC(=O)CC2N=C(Cc3ccccc3)NNC2=O)cc1 (centres undefined)	33	-1.2	12%	.	-2.0%	5%
Cc1cc(C)n(-c2ncnc3sc4c(c23)CCCC4)n1	-5	0.7	-30%	1.6	-26%	-2%
Cc1ccc(S(=O)(=O)Nc2n[nH]nc2C(=O)NC2CCCCC2)cc1	-9	0.0	-6%[15.4 µM]	-0.2	.	-12%
CCc1nnc(NC(=O)c2ccc(NC(=O)C(C)C)cc2)s1	8	1.6	-72%[inhibitor]	0.2	-5.8%	-15%
O=C(NCC(=O)N1CCC(Cc2ccccc2)CC1)c1ccc(Cl)cc1	-13	3.7	?	.	1.8%	2%
Fc1ccc(NC(=S)NCc2ccccc2)cc1	21	0.1	8%	-5.0	-3.9%	4%
O=C(CN1C(=O)NC2(CCCCCC2)C1=O)NCc1ccccc1Cl	8	-0.2	-28%	.	-0.7%	12%
COc1ccc(-c2nnc(SCC(=O)OC3CCCCC3)o2)cc1OC	11	1.2	8%	0.1	-2.7%	?
CS(=O)(=O)NNC(=O)Cn1nnc(-c2cc(C(F)(F)F)cc(C(F)(F)F)c2)n1	-5	1.0	2%	-0.3	.	-2%
COc1cccc(-c2cc(C(F)(F)F)n3ncc(C(=O)NCC4CCCO4)c3n2)c1 (centres undefined)	-4	-0.4	2%	-1.7	-5.7%	-15%
Cc1ccc(Cl)cc1N1CCN(C(=O)CCS(=O)(=O)c2ccc3c(c2)NC(=O)CO3)CC1	27	1.4	-24%	2.7	-1.0%	?
CC(=O)N1CCc2cc(S(=O)(=O)NCCC(=O)Nc3cc(C)cc(C)c3)ccc21	-4	0.9	4%	2.1	-1.0%	1%
NC(=O)c1c(NC(=O)c2ccccc2C(=O)O)sc2c1CCCC2	4	-0.7	6%[15.4 µM]	-0.1	0.2%	0%
COc1cc(C2Nc3ccccc3C(=O)N2NS(C)(=O)=O)c([N+](=O)[O-])cc1OC (centres undefined)	-12	-0.7	-11%[15.4 µM]	-1.0	0.3%	9%
O=C(CCCN1C(=O)c2cccnc2C1=O)Nc1ccccc1F	-18	0.4	1%[15.4 µM]	-3.8	-25%	22%
Cn1c(Cn2c(=O)sc3ccccc32)nnc1SCC(=O)N1CCCC1	7	0.8	3%	-0.1	-1.7%	5%
Cc1cc(NC(=O)CCC(=O)N(c2ccccc2)C(C)C(=O)NC2CCCC2)no1 (centres undefined)	3	0.0	-17%[15.4 µM]	1.0	.	.
O=C(CN1C(=O)S/C(=C/c2cccs2)C1=O)N1CCCC1	-8	-0.1	15%	.	-22%	-8%
C/C(=N/Nc1nc(C)cc(-c2ccccc2)n1)c1ccco1	5	-0.2	?	3.1	0.4%	-23%
Cc1ccc(C(=O)CC(=O)c2ccc(C(C)(C)C)cc2)cc1	-13	0.2	-38%	0.1	-4.4%	1%
COc1cc(-c2cc(=O)c3c(O)c(OC)c(OC)cc3o2)cc(OC)c1O	.	.	.	2.5	2.9%	-2%
Cc1cc(=O)c(C(=O)Nc2ccc(N3CCOCC3)cc2N2CCOCC2)nn1-c1ccccc1Cl	-13	0.0	-1%[15.4 µM]	.	0.8%	-40%
CC(C)CN(C(=O)COC(=O)COc1ccc2ccccc2c1)c1c(N)n(Cc2ccccc2)c(=O)[nH]c1=O	14	1.1	10%[15.4 µM]	.	1.5%	4%

Reformatted as a markdown table: part of the list above.
| compound | TRPML1 inh | TRPML1 ag | gsp agonist | Menin MLL FP FL | ClpP mod | gsp antagonist |
| --- | --- | --- | --- | --- | --- | --- |
| CC(C)CN(C(=O)COC(=O)COc1ccc2ccccc2c1)c1c(N)n(Cc2ccccc2)c(=O)[nH]c1=O | 14 | 1.1 | 10%[15.4 µM] | . | 1.5% | 4% |
| COc1cccc(-c2cc(C(F)(F)F)n3ncc(C(=O)NCC4CCCO4)c3n2)c1 (centres undefined) | -4 | -0.4 | 2% | -1.7 | -5.7% | -15% |
| NC(=O)c1c(NC(=O)c2ccccc2C(=O)O)sc2c1CCCC2 | 4 | -0.7 | 6%[15.4 µM] | -0.1 | 0.2% | 0% |

Additional structures follow.
SMILES	TRPML1 inh	TRPML1 ag	gsp agonist	Menin MLL FP FL	ClpP mod	gsp antagonist
COc1ccc(CNCc2ccc3c(c2)n(C)c(=O)n3C)cc1	-1	-0.5	.	.	0.3%	.
O=C(NCc1ccccc1CN1CCCC1)C1CCN(C(=O)c2ccc(F)cc2)CC1	-3	0.4	-4%	.	-1.4%	6%
CCOc1ccc(-c2nn(-c3ccccc3)cc2C2NC(=O)NC(C)=C2C(=O)OC(C)C)cc1C (centres undefined)	-11	7.5	.	.	-1.2%	.
O=C(CCN1C(=O)/C(=C/c2cccs2)SC1=S)Nc1ccccc1O	-12	0.7	5%[15.4 µM]	?	.	.
Nc1ccc(Cl)cc1C(=O)c1ccc[nH]1	0	-0.3	-19%	.	-0.4%	.
COC(=O)c1ccc(CC(=O)c2c(C)cc(O)cc2O)o1	89	1.3	?	21	0.2%	-18%
Cc1sc2nc(SCC(=O)Nc3cccc(S(N)(=O)=O)c3)[nH]c(=O)c2c1C	-16	0.6	-32%	.	-0.5%	1%
NS(=O)(=O)c1ccc(CCNC(=O)CNC(=O)c2ccc(F)cc2)cc1	0	1.8	0%[15.4 µM]	-0.9	.	8%
CCOc1ccc(NC(=O)c2sc3nc4c(cc3c2N)CN(Cc2ccccc2)CC4)cc1	-1	0.0	.	.	-3.9%	.
Cc1ccc(N2C(=O)C3C4C=CC(CC4)C3C2=O)c([N+](=O)[O-])c1 (centres undefined)	-3	-0.6	-6%	3.0	-0.2%	9%
COc1cccc(NC(=O)Nc2ccc3snnc3c2)c1	32	0.5	.	.	0.8%	.
OCC1(CO)COC(c2ccccc2)=N1	-20	2.2	-3%	2.3	-3.3%	11%
CCc1ccc(OCC(=O)NC(=S)Nc2ccc(Br)c(C)n2)cc1	7	0.5	-81%[inhibitor]	14	-1.0%	5%
C/C(=C\C(=O)c1ccc(Br)cc1)NNC(=O)c1ccccc1	-10	-0.5	-21%[15.4 µM]	.	1.3%	-20%
O=C(Nc1nc2ccccc2n1CCN1CCOCC1)c1ccc(Cn2cc([N+](=O)[O-])cn2)o1	7	-0.4	1%[15.4 µM]	-2.8	-0.4%	8%
COCc1cc(C)n(CC(=O)N/N=C/c2ccc(-c3ccc(Cl)c(C(=O)O)c3)o2)c(=O)c1C#N	25	-0.1	-6%	.	?	6%
Cc1ccc(-c2cc(C(=O)Nc3cc(C)on3)c3ccccc3n2)c(C)c1	-7	-0.2	-53%[inhibitor]	3.6	-9.9%	-5%
Cc1ccc(NC(=O)C(C)OC(=O)COc2cccc(C(F)(F)F)c2)cc1 (centres undefined)	35	1.6	5%	.	-0.5%	0%
O=C(Nc1ccc(F)cc1F)c1cc(CN2CCOCC2)on1	-2	0.4	.	.	-1.0%	.
CC(Nc1ncnc2c1cnn2-c1cccc(Cl)c1)c1ccccc1 (centres undefined)	54	0.6	.	.	-9.4%	.
CCOC(=O)N1CCN(C(=O)c2ccc3c(=O)n(CCOC)c(=O)[nH]c3c2)CC1	10	0.3	6%[15.4 µM]	3.0	-20%	-4%
